# HCMV NEC inh: inhibitors of HCMV UL50-UL53 interaction, biochemical, HTRF; normalized percent inhibition; inhibition, % (concentration not given with the values); 190,000 compounds, 0.15% hits;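 active = both replicates at 50% or more, plus weaker picks with an unusually low signal ratio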;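 also: stock transfer was 100 nL into about 20 µL; 0% = negative control wells and 100% = wells with untagged competitor protein; inactives centre near -12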
# GIV-Gai inh: inhibitors of GIV peptide binding to Galpha-i3, primary screen, biochemical, fluorescence polarization, FITC-GIV GBA peptide, rat Galphai3. Guanine nucleotide-binding protein G(i) subunit alpha-3 (Rattus norvegicus), P08753. 90 min; stronger effect = lower value; scaled: aluminum fluoride 0%, vehicle 100%. percent of control (FP), % (no concentration beside the values). 210,000 compounds, 0.42% hits;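 active = replicate mean at 85% of control or lower, very high polarization wells dropped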;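 also: wells of about 15 µL received 100 nL stock; the first replicate is given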
# Target sequence (P08753 whole entry, looked up): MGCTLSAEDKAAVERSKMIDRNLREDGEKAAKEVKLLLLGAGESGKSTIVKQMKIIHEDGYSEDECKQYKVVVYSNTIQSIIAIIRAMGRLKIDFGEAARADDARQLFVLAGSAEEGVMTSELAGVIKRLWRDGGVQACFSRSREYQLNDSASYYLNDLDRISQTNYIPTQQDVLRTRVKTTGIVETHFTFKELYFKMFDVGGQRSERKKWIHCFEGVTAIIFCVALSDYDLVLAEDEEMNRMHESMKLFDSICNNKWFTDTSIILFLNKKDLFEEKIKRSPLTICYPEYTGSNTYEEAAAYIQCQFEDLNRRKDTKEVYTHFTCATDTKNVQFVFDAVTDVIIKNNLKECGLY
# Sa growth 42C: S. aureus growth inhibition at 42 and 30 °C, primary screen, LtaS inhibitor project, RN4220, two temperatures; OD600, 20 h, 42 °C; stronger effect = lower value; relative growth, % (concentration not given with the values); 170,000 compounds, 0.53% hits;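 active = growth at 42 °C up to 50% and 20 or more points under that at 30 °C, or under 10% at both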;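 also: 300 nL library stock went into each well; scaled to the means of positive and negative controls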
# Sa growth 42C second temp: second read-out of Sa growth 42C, no call of its own (marks repeat the call); relative growth, %; measured here: growth at 30 °C;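 optical density after 20 h as mean of two plates; 100% = untreated growth and lower means inhibition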
# Starred values were filed as active, the others as inactive; / = not tested or not shown; & = joins results of further samples.
# Keys – A = HCMV NEC inh; B = GIV-Gai inh; C = Sa growth 42C; D = Sa growth 42C second temp
1. CC1(C(=O)Nc2ccccc2)Cc2ccccc2C(=O)O1 (stereo not drawn)
  A = -1 | B = 100&102 | C = 111 | D = 88

2. Cc1nc(CSc2nc(N)c(C#N)cc2C#N)cs1
  A = -28 | B = / | C = 61 | D = 72

3. COc1ccc(N2CCN(CC(O)COc3ccccc3)CC2)cc1 (stereo not drawn)
  A = -28 | B = / | C = 96 | D = 83

4. COCCn1ccc2c(OCC(=O)NCc3ccco3)cccc2c1=O
  A = -1 | B = 111 | C = 91 | D = 95

5. O=C(c1cnn2c(C(F)(F)F)cc(-c3ccc(Br)cc3)nc12)N1CCCCC1
  A = -15 | B = 96 | C = / | D = /

6. CC(=O)Oc1ccccc1C(=O)NCCC1=CCCCC1
  A = 15 | B = 101 | C = 29 | D = 8

7. COc1ccc(-n2nc3c(c2NC(=O)C(=O)N2CCN(C)CC2)CSC3)cc1
  A = / | B = 106 | C = 108 | D = 88

8. COC(=O)c1ccccc1NC(=O)CN(c1ccc(OC)c(OC)c1)S(=O)(=O)c1ccc(C)cc1
  A = 4 | B = 107 | C = / | D = /

9. COc1ccc(N2C(=O)CCS2(=O)=O)cc1S(=O)(=O)NCCC1=CCCCC1
  A = 3 | B = 99 | C = / | D = /

10. CN(C(=O)C1CCCCC1C(=O)O)c1ccccc1 (stereo not drawn)
  A = 8 | B = 106 | C = 101 | D = 107

11. Cc1ccccc1NC(=O)N(Cc1ccco1)C(=O)CC#N
  A = -29 | B = 122 | C = 93 | D = 86

12. NC(=S)N1N=CCC1(O)C(F)(F)F (stereo not drawn)
  A = -28 | B = / | C = 65 | D = 86

13. CCc1ccccc1NC(=O)CCCn1c(=O)c2cccn2c2ccccc21
  A = 4 | B = 105 | C = 120 | D = 80

14. Cc1c(NC(=O)NCc2ccccc2)n(C)c(=O)n1-c1ccccc1
  A = -8 | B = 102 | C = 99 | D = 100

15. O=C(CSc1nnc2n(Cc3cccs3)c(=O)c3sccc3n12)NCc1ccco1
  A = -7 | B = 104 | C = / | D = /

16. CN(Cc1ccccc1)Cc1c(O)ccc2ccccc12
  A = -5 | B = / | C = 85 | D = 84

17. COc1ccc(OC)c(NC(=O)c2cc(-c3ccccc3)nc3ccccc23)c1
  A = -2 | B = 107 | C = / | D = /

18. COc1ccc(N2Cc3cccc(C(=O)Nc4cccc(F)c4)c3C2=O)cc1
  A = -23 | B = 106 | C = 103 | D = 81

19. NCCCCCC(=O)O
  A = -15&2&-4&0 | B = 108 | C = 89 | D = 84

20. Nc1nc(NCc2ccco2)nn1-c1ccccc1
  A = -2 | B = 99 | C = 94 | D = 90

21. COc1ccc(OCC(=O)NCc2ccc3c(c2)CCN3C(=O)c2cccc(C)c2)cc1
  A = / | B = 106 | C = 117 | D = 85

22. CCOC(=O)c1sc2ccccc2c1S(=O)(=O)Nc1c(C)cccc1C
  A = / | B = 99 | C = 81 | D = 86

23. COc1ccc(C2CC(=O)C3=C(C2)Nc2ccccc2NC3c2cc3c(cc2Cl)OCO3)cc1 (stereo not drawn)
  A = -22 | B = 97 | C = / | D = /

24. Cc1cccc(CNC(=O)c2ccc(Cn3c(SCc4ccccc4)nc4cccnc43)cc2)c1
  A = / | B = 104 | C = 131 | D = 103

25. CCOc1ccccc1NC(=O)Cn1c(=O)n(Cc2ccco2)c(=O)c2ccc(C(=O)NC3CCCC3)cc21
  A = -17 | B = 105 | C = 110 | D = 84

26. Cc1ccc(C(=O)O)cc1NS(=O)(=O)c1ccc2c(c1)CCN2C(=O)CCC(=O)O
  A = -35 | B = 97 | C = / | D = /

27. O=C(C1CCCN1C(=O)c1cccs1)N1CCN(S(=O)(=O)Cc2ccccc2)CC1 (stereo not drawn)
  A = 19 | B = / | C = 98 | D = 90

28. CC1CCN(c2nc3ccccc3nc2SCC(=O)Nc2ccccc2C(C)C)CC1
  A = -8 | B = 104 | C = 98 | D = 90

29. CC1=CC(C)(C)N(C(=O)c2sc3ccccc3c2Cl)c2ccc(C(c3ccccc3)(c3ccccc3)c3ccccc3)cc21
  A = -20 | B = 104 | C = / | D = /

30. Cn1c(C(=O)NCCC2=CCCCC2)cc2c(=O)n(C)c3ccccc3c21
  A = / | B = 104 | C = 98 | D = 91

31. CCOc1ccc(S(=O)(=O)N2CCN(c3ccc(Cl)c(Cl)c3)CC2)c2ccccc12
  A = 19 | B = 108 | C = 99 | D = 101

32. Cc1csc(C(C#N)C(=O)CSc2cc(C)c3ccccc3n2)n1 (stereo not drawn)
  A = -17 | B = / | C = 88 | D = 82

33. COCC1=NN(c2ccccc2)C(=O)C1
  A = 0 | B = / | C = 81 | D = 75

34. O=C(Nc1ccc2cn[nH]c2c1)c1cc(=O)c2ccccc2o1
  A = -32 | B = / | C = 111 | D = 89

35. CCCCN(c1ccccc1)S(=O)(=O)c1ccc(F)cc1F
  A = -27 | B = / | C = 91 | D = 84

36. Cc1cc(C)c(C#N)c(SCCS(=O)(=O)Cc2ccc(Cl)cc2)n1
  A = / | B = 99 | C = 93 | D = 92

37. Cc1nn(Cc2ccccc2Cl)c(C)c1C(=O)NCc1cccs1
  A = -6 | B = / | C = 101 | D = 94

38. c1ccc(OCCn2c3ccccc3c3nc4ccccc4nc32)cc1
  A = / | B = 103 | C = 128 | D = 88

39. COc1cccc(-c2cc(C(F)(F)F)nc(NCCc3ccccc3)n2)c1
  A = -6 | B = 100 | C = 76 | D = 74

40. O=C(Nc1n[nH]c(-c2nc(NC(=O)C(F)(F)F)n[nH]2)n1)C(F)(F)F
  A = -5 | B = 101 | C = / | D = /

41. COc1cc(OC)cc(OC(=O)C2=COCCO2)c1
  A = -22 | B = / | C = 85 | D = 92

42. COC(=O)c1ccc(Nc2nnc(-c3ccc(C)c(S(=O)(=O)N4CCN(C)CC4)c3)c3ccccc23)cc1
  A = -29 | B = 108 | C = 110 | D = 84

43. CCCS(=O)(=O)N1CCC(C(=O)NCCc2ccccc2)CC1
  A = -22 | B = 103 | C = 110 | D = 96

44. Oc1ccccc1C1OCC2(CO1)COC(c1ccccc1O)OC2 (stereo not drawn)
  A = -35 | B = 107 | C = 87 | D = 77

45. C=CCn1c2ccccc2c2nnc(SCC(=O)Nc3nc(Nc4ccc([N+](=O)[O-])cc4)cs3)nc21
  A = -16 | B = 110 | C = / | D = /

46. N#CC1=Cc2ccccc2C2NN3C(C#N)=Cc4ccccc4C3NN12 (stereo not drawn)
  A = -34 | B = 107 | C = 102 | D = 94

47. Cc1cc(-n2nc3ccc(Cl)cc3n2)c(O)c(C(C)(C)C)c1
  A = / | B = 107 | C = 63 | D = 88

48. CCC(C)NC(=O)CSC1=N/C(=C/c2ccc(OC)cc2)C(=O)N1Cc1ccco1 (stereo not drawn)
  A = -4 | B = / | C = 88 | D = 78

49. Clc1ccc(/C=N/NCc2cn3ccsc3n2)cc1
  A = -74 | B = / | C = 110 | D = 93

50. CCN(CC)c1ccc2c(C)c(CO)c(=O)oc2c1
  A = -40 | B = 113 | C = 102 | D = 79

51. O=C(OCC(=O)c1ccccc1)/C(=C/c1cccs1)c1cccs1
  A = -19 | B = / | C = 94 | D = 86

52. COc1ccc(-n2c(=O)c3sc4ccccc4c3n(CC(=O)Nc3ccccc3F)c2=O)cc1
  A = -30 | B = 100 | C = 101 | D = 85

53. C=CCn1c(C(F)(F)F)nc2ccccc21
  A = -9 | B = / | C = 95 | D = 91

54. CNC(=O)c1c(NC(=O)Cc2coc3cc(C)ccc23)sc2c1CCCC2
  A = 0 | B = 101 | C = 100 | D = 94

55. O=C(NCC(=O)N1CCN(C2CCCCC2)CC1)c1ccc(-c2noc(C3CCCC3)n2)cc1
  A = -33 | B = 106 | C = / | D = /

56. COc1cccc(N2CCN(C(=O)C3CCN(S(=O)(=O)c4c(C)noc4C)CC3)CC2)c1
  A = 1 | B = 107 | C = 108 | D = 95

57. CN1CCC(N(C)C(=O)c2cc(-c3ccco3)nc3ccccc23)CC1
  A = 6 | B = / | C = 92 | D = 100

58. Cc1c(/C=C2\SC(c3ccccc3)=NC2=O)c(=O)n(-c2ccccc2)n1C
  A = / | B = -4.0* | C = 108 | D = 82

59. CCCn1c2ccccc2c2nnc(SCCNS(=O)(=O)c3ccccc3)nc21
  A = -14 | B = / | C = 91 | D = 104

60. N#Cc1c(NC(=O)C(F)(F)F)oc(-c2ccccc2)c1-c1ccccc1
  A = -67 | B = 93 | C = 34 | D = 30

# The listing continues.
# Keys – A = HCMV NEC inh; B = GIV-Gai inh; C = Sa growth 42C; D = Sa growth 42C second temp
61. COc1ccc(-c2nnc(SCc3cc(=O)n4c(C)csc4n3)o2)cc1OC
  A = -48 | B = 97 | C = / | D = /

62. COc1ccc(OC)c(CNc2ncc(-c3ccc(Cl)cc3)n2C)c1
  A = -2 | B = 111 | C = 117 | D = 56

63. O=C(Nc1ccccc1)N1CCCN(c2nc3ccc(Cl)cc3s2)CC1
  A = -13 | B = 104 | C = 108 | D = 54

64. CCC(=O)N1CCc2cc(Br)cc(S(=O)(=O)CCC(=O)Nc3ccc(C)c(F)c3)c21
  A = -2 | B = 98 | C = 91 | D = 90

65. Cc1[nH]c(C)c(S(=O)(=O)N2CCN(c3ccccn3)CC2)c1C(=O)N1CCCC1
  A = -22 | B = 104 | C = / | D = /

66. CCCNS(=O)(=O)c1ccc2nc(NC(=O)c3ccc(F)cc3)sc2c1
  A = / | B = 100 | C = 61 | D = 54

67. Cc1ccccc1NC(=O)COc1cccc(-c2nc(-c3ccccc3)no2)c1
  A = -16 | B = 107 | C = / | D = /

68. Cc1cc(C)cc(NC(=O)c2sc3nc4n(c(=O)c3c2C)N=C(c2ccc(F)cc2)CS4)c1
  A = / | B = 107 | C = 124 | D = 99

69. CCN(CC)C(=O)Cn1c(S(=O)(=O)CC)nc2ccccc21
  A = -5 | B = 100 | C = 89 | D = 87

70. O=[n+]1cc(-c2ccc(Br)cc2)n([O-])c2c1CCC2
  A = -158 | B = 109 | C = 87 | D = 85

71. Cc1cc(C)c2c(n1)nn1c(C)c(CCC(=O)NC(C)C)c(C)nc21
  A = / | B = 98 | C = 98 | D = 86

72. CCN(Cc1ccccc1)C(=O)Cc1c[nH]c2ccccc12
  A = -35 | B = / | C = 120 | D = 89

73. CCOc1cc(/C=C2\SC(=O)NC2=O)ccc1OC(=O)c1cccc([N+](=O)[O-])c1
  A = -11 | B = 108 | C = / | D = /

74. c1cnc2c(CN3CCCCCC3)cccc2c1
  A = -18 | B = / | C = 117 | D = 85

75. O=C(Nc1ccn(C2CC(OC(=O)c3ccccc3)C(CO)O2)c(=O)n1)c1ccccc1 (stereo not drawn)
  A = -19 | B = 99 | C = 94 | D = 82

76. O=C(c1ccco1)N(Cc1cccs1)c1ccc(F)cc1
  A = -6 | B = 111 | C = 91 | D = 93

77. O=C(NC1CC1)c1cc(F)cc2c1OCOC2
  A = -2 | B = 111 | C = 97 | D = 98

78. Cc1ccc(C)c(N(CC(=O)Nc2ccccc2)S(C)(=O)=O)c1
  A = -27 | B = 100 | C = 102 | D = 83

79. O=C(CN1c2ccc(Br)cc2-c2ccccc2S1(=O)=O)NCC1CCCO1 (stereo not drawn)
  A = -14 | B = 99 | C = / | D = /

# High-throughput results as filed in PubChem BioAssay.
